ALDH1A1 block: blocks purified human ALDH1A1 activity. Purified ALDH1A1, NADH fluorescence, propionaldehyde substrate. actives 7.3% (n = 220,000). Potency, µM (highest dose often 75.3 µM), for the others: top-dose activity, negative = inhibition, hits mostly inhibitors. AID 1030; active means well fitted inhibition curve with a large enough effect, not every such curve was filed as active; inconclusive means small, poorly fitted or top-dose-only effect, or another doubt; inactive means no such curve, though single readings can be large or run the other way;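 further: plate controls were no enzyme wells and a reference inhibitor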
RECQ1 inh: blocks DNA unwinding by human RECQ1; P46063; RECQ1 DNA unwinding, red fluorescence kinetic read; Potency, µM (top dose mostly 57.3 µM), for inactives: at the highest dose activity, negative = inhibition, usual class: inhibitors; actives 0.54% (n = 240,000); AID 2549;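 further: plate controls were vehicle for no effect and no enzyme for full effect; nearly all actives have a fitted effect of over 30% in size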
Target sequence (P46063 whole entry, looked up): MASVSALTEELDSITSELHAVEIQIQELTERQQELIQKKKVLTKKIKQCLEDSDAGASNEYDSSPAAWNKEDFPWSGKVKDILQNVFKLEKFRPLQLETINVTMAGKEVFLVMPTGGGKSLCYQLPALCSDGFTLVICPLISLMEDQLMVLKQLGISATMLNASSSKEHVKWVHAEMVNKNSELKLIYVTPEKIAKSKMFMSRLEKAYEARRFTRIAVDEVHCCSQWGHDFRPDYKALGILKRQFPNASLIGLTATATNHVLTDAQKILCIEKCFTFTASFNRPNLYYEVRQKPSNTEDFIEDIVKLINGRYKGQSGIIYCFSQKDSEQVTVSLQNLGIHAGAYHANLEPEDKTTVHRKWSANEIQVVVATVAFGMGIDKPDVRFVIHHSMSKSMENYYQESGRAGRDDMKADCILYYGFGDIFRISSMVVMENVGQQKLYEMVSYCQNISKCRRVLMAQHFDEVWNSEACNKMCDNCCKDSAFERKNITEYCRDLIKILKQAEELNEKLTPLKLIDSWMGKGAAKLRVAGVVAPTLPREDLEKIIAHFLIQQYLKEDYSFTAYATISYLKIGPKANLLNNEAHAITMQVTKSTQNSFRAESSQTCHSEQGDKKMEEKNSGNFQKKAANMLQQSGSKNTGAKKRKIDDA
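RECQ1T1 50 nM; forked duplex (20 bp + 30-nt ss tails) 200 nM, ATP 2 mM final; pH 8.0, 2 mM MgCl2, 2.5 ug/ml poly(dI-dC); 15 min compound preincubation; discontinuous kinetic read over 2 h at RT.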
SMN2 splice enh: SMN2 splice variant enhancement. HEK293 SMN2-luciferase splicing reporter, luminescence, 30-36 h. Potency, µM (series often up to 46.1 µM), inactives show at the highest dose activity change, positive = activation, most hits filed as activators. actives 2.8% (n = 210,000); further: % of control where 0% means no effect; nearly all actives have a fitted effect of over 55% in size
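HEK293 cells carry an SMN2 minigene-luciferase reporter in which exon 7 inclusion puts luciferase in frame. Cells were seeded at 2000 cells/well, attached for 10-12 hours, then exposed to compounds for 30-36 hours at 37C before ONE-Glo luminescence.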
L3MBTL1 block: blocks human L3MBTL1. AlphaScreen L3MBTL1–H3K9me1 peptide binding. Potency, µM (top dose mostly 57.1 µM), inactives show at the top dose activity, negative = inhibition, hits mostly inhibitors. actives 0.66% (n = 230,000). AID 485360; further: on the % scale 0 is the no-effect control and ±100 the full control effect; nearly all actives have a fitted effect of over 60% in size
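Displacement of a biotinylated histone H3(1-15) peptide monomethylated at Lys9 (75 nM) from L3MBTL1 (50 nM) was measured by AlphaScreen after a 30 min room-temperature compound incubation; cefsulodin titration served as intraplate control.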
Lamin A splicing: LMNA splicing modulation | Potency, µM (top dose mostly 46.1 µM), for the others: at the highest dose ratio change, negative = inhibition, usual class: inhibitors | actives 0.01% (n = 200,000) | HeLa LMNA splicing GFP/RFP minigene ratio, 48 h; active means well fitted inhibition curve with a large enough effect in the signal ratio, with a control signal flat, not every such curve was filed as active; inconclusive means small, poorly fitted or top-dose-only effect, or effect the other way, or a change in a side signal; the % refers to the signal ratio; further: on the % scale 0 is the no-effect control and ±100 the full control effect
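S3 HeLa cells stably expressing lamin A-EGFP splicing minigene plus DsRed2, 600 cells/well, 48 h compound exposure at 37C. Laser-scanning cytometry; analysed as GFP (500-530 nm)/RFP (575-640 nm) total intensity ratio; 0.5% DMSO vehicle.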
Luc counter: Kinase-Glo luciferase inhibition (counter-screen) | Q27757 | Kinase-Glo luciferase, ATP luminescence, 8 min | Potency, µM (doses to about 38.3 µM), without a hit: at the top dose activity change, negative = inhibition, usual class: inhibitors | actives 0.28% (n = 200,000) | AID 1379; further: on the % scale 0 is the no-effect control and ±100 the full control effect; nearly all actives have a fitted effect of over 60% in size
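Recombinant Kinase-Glo luciferase, 10 uM ATP (linear range), luciferin; imidazole pH 7.2 / KCl / MgCl2 / Tween / BSA buffer; 8 min RT; luminescence.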
Tau fibril ThT: tau fibrillization inhibition (ThT binding); P10636; recombinant tau K18 P301L (four-repeat tau fragment), heparin-induced fibrillization, ThT fluorescence; Potency, µM (doses to about 57.4 µM), without a hit: at the highest dose activity, negative = inhibition, actives largely listed as inhibitors; actives 2.1% (n = 270,000); AID 1460; further: on the % scale 0 is the no-effect control and ±100 the full control effect; nearly all actives have a fitted effect of over 55% in size
Target sequence (P10636 561-689 P618L limits assumed): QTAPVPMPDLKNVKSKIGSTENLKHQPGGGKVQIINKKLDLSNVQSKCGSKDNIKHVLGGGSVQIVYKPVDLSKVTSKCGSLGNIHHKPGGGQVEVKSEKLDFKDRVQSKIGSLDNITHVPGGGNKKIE
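K18 P301L tau (15 uM + 0.24 uM Alexa 594-tagged), heparin 20 uM, NaOAc pH 7, 6 h 37 C; ThT 30 uM, 1 h RT, ex 450/em 510 nm.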
The depositor's hits bear a star; i = inactive; ? = inconclusive; . = not tested or not shown; & = joins results of further samples; [ ] = another dose, or the depositor's remark. Unless noted, the call rests on the fitted dose curve; in most records, active means well fitted curve in the direction sought with a large enough effect; inconclusive means small, poorly fitted or top-dose-only effect, or another doubt; inactive means no such curve, though single readings can be large; an effect the other way counts as inactive or inconclusive. Potency means the concentration at half of the fitted maximal effect. The list is partial; rates above refer to the full screens.

The first 3 compounds, ahead of the listing:
cpd | compound | ALDH1A1 block | RECQ1 inh | SMN2 splice enh | L3MBTL1 block | Lamin A splicing | Luc counter | Tau fibril ThT
1 | CCC1CCCCN1C(=S)NC(=O)c1ccc([N+](=O)[O-])cc1 (configuration not stated) | 35µM* | -10% | -23% | -4% | ? | -2% | -12%
2 | COc1cc(CNc2ccc3c(c2)CCC3)cc(OC)c1O | 20µM* | -3% | 7% | -15% | -15% | -1% | ?
3 | CCc1ccc(S(=O)(=O)N(C(=O)c2ccncc2)c2ccc(OC(=O)c3ccncc3)cc2)cc1 | -12% | ? | -21% | -4% | ? | 0% | ?

This part in full (from the top)
cpd | compound | ALDH1A1 block | RECQ1 inh | SMN2 splice enh | L3MBTL1 block | Lamin A splicing | Luc counter | Tau fibril ThT
1 | CCC1CCCCN1C(=S)NC(=O)c1ccc([N+](=O)[O-])cc1 (configuration not stated) | 35µM* | -10% | -23% | -4% | ? | -2% | -12%
2 | COc1cc(CNc2ccc3c(c2)CCC3)cc(OC)c1O | 20µM* | -3% | 7% | -15% | -15% | -1% | ?
3 | CCc1ccc(S(=O)(=O)N(C(=O)c2ccncc2)c2ccc(OC(=O)c3ccncc3)cc2)cc1 | -12% | ? | -21% | -4% | ? | 0% | ?
4 | Cc1cc(C)c(S(=O)(=O)Nc2cccc(C(F)(F)F)c2)c(C)c1 | 6% | -21% | . | . | . | -3% | -4%
5 | CN(C)CCNC(C(=O)Nc1cccc(C(F)(F)F)c1)c1ccccc1 (configuration not stated) | 2% | i | -22% | 1% | 18%[46 µM] | 1% | -13%
6 | O=c1c(O)c(-c2ccccc2)oc2ccccc12 | -13% | -12% | -36%[inhibitor] | . | ? | -3% | -7%
7 | O=C(C1CCCN(CCCc2ccccc2)C1)N1CCCCCC1 (configuration not stated) | -10% | -14% | -11% | -3% | -3% | -2% | 1%
8 | CCOc1ccccc1-c1n[nH]c(=S)o1 | ? | i | -2% | . | -3% | 0% | -13%
9 | N#C/C(=C\c1ccc([N+](=O)[O-])cc1)C(=O)NCCCn1ccnc1 | . | 23% | . | . | . | . | ?
10 | O=C(CNC1CCCC1)Nc1cc(Cl)ccc1[N+](=O)[O-] | ? | 3% | . | -3% | . | . | -8%
11 | CCOC(=O)c1c(O)c2ccccc2n(C)c1=O | ? | -5% | . | -1% | . | -2% | -7%
12 | COCCn1c(C)cc(C(=O)CSc2n[nH]c(N)n2)c1C | 3% | -23% | 1% | 14%[11.4 µM] | -1% | -6% | -18%
13 | CCc1ccc(NC(=O)CSc2ccc(-c3ccco3)nn2)cc1 | ? | i | -27% | . | . | 1% | -12%
14 | Cc1c(/C=N/NC(=O)c2ccccc2O)c2ccccn2c1C(=O)c1ccc(F)cc1 | -10% | 0% | -103%[inhibitor] | ? | ? | -4% | 12%
15 | c1ccc(C2C3=C(CCCC3)Nc3ncnn32)cc1 (configuration not stated) | -3% | 0% | -19% | -7% | 5% | -3% | -5%
16 | COc1ccc(-c2nnc3ccc(SCc4ccccc4)nn23)cc1 | 27% | i | . | -1% | . | . | -8%
17 | COc1ccc(CN(C2CCCCC2C)S(=O)(=O)c2ccc(S(=O)(=O)N(C)C)cc2)cc1OC (configuration not stated) | 3.5µM* | 0% | -20% | -9% | ? | 6% | -9%
18 | COc1cc(-c2cc(-c3ccc(F)cc3)nc(N)c2C#N)ccc1O | 13% | -1% | . | 2% | -5%[46 µM] | -6% | -7%
19 | CCOC(=O)CSc1nc(N)nc(C)c1Cl | 8% | 19% | . | 6% | -3%[46 µM] | 0% | -2%
20 | Cc1cc2cc(C(c3nnnn3CC3CCCO3)N3CCCc4ccccc43)c(=O)[nH]c2cc1C (configuration not stated) | 2.5µM* | -11% | ? | . | -6% | -9% | -18%
21 | C(=N\Nc1nncn1/N=C/c1ccco1)/c1ccco1 | . | -5% | . | . | . | . | .
22 | Cc1c(NC(=O)c2cccnc2C(=O)O)cccc1C(=O)O | ? | -4% | . | -1% | 4% | 11% | -3%
23 | N#Cc1ccc(CS(=O)(=O)c2nc3ccccc3s2)cc1 | ? | -6% | 4% | . | . | -1% | -13%
24 | Cc1ccc(CNC(=O)CCc2ccc(S(=O)(=O)NC3CCCCC3)cc2)cc1 | ? | -11% | 47% | . | ? | -3% | 2%
25 | Clc1ccc(SCCN2CCNCC2)cc1 | ? | i | . | 7% | -5%[46 µM] | 2% | -13%
26 | Cc1cc(F)ccc1S(=O)(=O)N(C(=O)c1ccncc1)c1ccc(OC(=O)c2ccncc2)cc1 | 6% | -11% | 8% | 2% | -6%[46 µM] | 1% | ?
27 | CCCCOCC1CC(CC#CCN2CCCCC2)C(=O)O1 (configuration not stated) | 25µM* | i | . | 9% | ? | -4% | -4%
28 | CN1CCN(CCOc2ccc(Cl)c(Cl)c2)CC1 | ? | -2% | 7% | 0% | ? | 1% | -2%
29 | CCOC(=O)c1c(NC(=O)c2ccncc2)sc(C)c1C | 13µM* | i | -2% | 9% | -4%[46 µM] | 0% | ?
30 | CC(=O)Nc1ccc(S(=O)(=O)Oc2ccc(C=O)cc2)cc1 | 28µM* | -5% | -11% | -4% | 9% | 1% | -8%
31 | CN(C)CCNCCCOc1ccccc1-c1ccccc1 | ? | i | -58%[inhibitor] | -8% | -1%[46 µM] | 1% | 4%
32 | CCOCCCNC(=S)N1CCN(Cc2ccc3c(c2)OCO3)CC1 | ? | 12% | . | 9% | . | 0% | 9%
33 | O=C(CN1CCN(C2CCCCC2)CC1)Nc1cccc2ccccc12 | ? | -5% | 8% | -2% | 2%[46 µM] | 3% | -6%
34 | Cc1cccc(C(=O)N2CCC(=O)N([C@H](COCc3ccccc3)Cc3ccccc3)CC2)c1 | ? | i | . | . | . | -1%[39.9 µM] | ?
35 | C=CCN(CC=C)CCOc1ccc(C)cc1[N+](=O)[O-] | ? | i | 6% | -1% | . | 1% | -5%
36 | COc1ccc(CN2CCN(S(=O)(=O)c3ccc(NC(C)=O)cc3)CC2)c(OC)c1OC | ? | -1% | -22% | 0% | ? | 2% | -8%&-15%
37 | OCCNCCOCCOc1ccccc1-c1ccccc1 | ? | 6% | 0% | -3% | 1% | -1% | -4%
38 | COc1cc(-c2ncc3ccccn23)cc(OC)c1OC | ? | -8% | 25% | . | 14% | 0% | ?
39 | O=C(CN1CCCC1)Nc1ccc2c(c1)CCC2 | ? | -4% | ? | -3% | -5%[46 µM] | 5% | 1%
40 | S=c1nc[nH]c2c1ncn2C1CCCO1 (configuration not stated) | 13µM* | 13% | . | -12% | ? | . | -2%
41 | CCN(CC)C(=O)COc1ccc(/C=C(\C#N)S(=O)(=O)c2ccccc2)cc1OC | ? | 0% | 3% | -3%[11.4 µM] | -15%[46 µM] | 2% | -8%
42 | CCOc1ccc(/C=C2\N=C(c3cccs3)OC2=O)cc1OC | 10% | -9% | 26% | 12% | 8% | -1% | -15%
43 | CCOC(=O)N1CCN(CC(O)COc2ccccc2C(C)CC)CC1 (configuration not stated) | 12% | i | -20% | 3% | ? | -5% | -1%
44 | O=C(CN1CCCC1)Nc1ccc(Br)cc1 | ? | -14% | 7% | 41%[activator] | . | 0% | 5%
45 | COc1ccc(Cl)cc1NC(=O)CNCC(c1ccccc1)N(C)C (configuration not stated) | ? | -4% | ? | . | . | -1% | -15%
46 | CCOc1cccc(=O)c2c(C)n(C)c(C)c12 | -9% | ? | -23% | ? | ? | 13% | 16µM*
47 | COc1ccc(/C=C/C(=O)c2oc3ccc(F)cc3c2C)cc1 | ? | 8% | -36%[inhibitor] | -7% | -9% | 6% | ?
48 | O=[N+]([O-])c1ccccc1OCCOCCOc1cccc2cccnc12 | ? | -1% | 9% | -7% | ? | -1% | -12%
49 | O=C(NNc1nc2cc3c(cc2s1)OCCO3)c1ccccc1 | ? | 0% | 20µM* | -21% | -15%[46 µM] | 0% | ?
50 | Cc1ccc(CNC(=O)C2CN(S(C)(=O)=O)c3cc(Cl)ccc3O2)cc1 (configuration not stated) | 3% | -8% | -1% | -1% | -7%[46 µM] | 3% | 8%

(further entries)
cpd | compound | ALDH1A1 block | RECQ1 inh | SMN2 splice enh | L3MBTL1 block | Lamin A splicing | Luc counter | Tau fibril ThT
51 | COc1ccc(CN2CCN(CCCCOc3ccc(Cl)cc3)CC2)c(OC)c1OC | ? | i | -25% | -7%[11.4 µM] | ? | 4% | 1%
52 | COc1ccc(-c2cc(C(=O)NC(Cc3cc4ccccc4[nH]3)C(=O)O)c(C)o2)cc1OC (configuration not stated) | -14% | i | . | . | . | . | ?
53 | CCN1CCN(CC(=O)Nc2cc3c(cc2C(C)=O)OCO3)CC1 | ? | i | 6% | 5% | . | 3% | 1%
54 | C[C@H](NC(=O)c1[nH]cnc1C(=O)Nc1ccccc1)C(=O)OC(C)(C)C | . | i | . | . | . | . | 5%
55 | COc1ccc(C2C3=C(Nc4ncnn42)c2ccccc2CCC3)cc1 (configuration not stated) | ? | -8% | . | 3% | -10% | . | -21%
56 | COc1cc(/C=C(\C#N)C(=O)c2c(C)[nH]c3ccccc23)cc(OC)c1OC | 8.9µM* | -3% | . | -6% | -11% | . | -13%
57 | Cc1ccc(S(=O)(=O)NNc2ccccc2)cc1 | 5.6µM* | -6% | -3% | 2% | 12%[0.0737 µM] | -2% | -2%
58 | Cc1cccc(Oc2c([N+](=O)[O-])c(=O)n(C)c3ccccc23)c1 | 3.2µM* | -4% | . | -7% | 5%[46 µM] | -1% | 14µM*
59 | O=C(c1ccccc1F)N1CCN(Cc2ccccc2F)CC1 | ? | -1% | 18% | . | ? | -1% | 0%
60 | O=C(CCc1c[nH]c2ccccc12)N1CCN(c2ccc(O)cc2)CC1 | 8.9µM* | -15% | -62%[inhibitor] | -21% | ? | 5% | ?
61 | CCn1c(=O)c(-c2cc(=O)[nH][nH]2)c(O)c2ccccc21 | ? | 25µM* | 1% | -30% | . | 5% | ?
62 | CCOC(=O)c1cc2c(C(F)(F)F)cc(-c3ccccc3)nc2o1 | ? | -8% | 13% | 4% | 4% | 2% | 1%
63 | COc1ccc(C(=O)CSc2ccc3nnc(-c4cccnc4)n3n2)cc1 | -8% | i | -21% | . | 8%[9.22 µM] | 1% | -7%
64 | CC(C)CC(=O)N1CCN(Cc2ccccc2[N+](=O)[O-])CC1 | 0.089µM* | 10% | . | -5% | ? | 1% | 1%
65 | COc1ccc(/C=C2\CCCc3c2nc2ccc(C)cc2c3C(=O)O)cc1O | 17% | -4% | . | -2% | 13%[46 µM] | . | -23%
66 | CCCN1C(=O)/C(=C/c2ccc3c(c2)OCO3)NC1=S | 2.2µM* | -22% | -20% | . | . | 0% | -18%
67 | O=C(NCC1CCCO1)c1csc(Nc2cccc3ccccc23)n1 (configuration not stated) | -9% | -4% | . | ? | ? | 13µM* | -12%
